Assay outcomes as filed in PubChem.
Bst PK mod = Pyruvate Kinase | partly purified Bacillus stearothermophilus pyruvate kinase, luminescence ATP production; ribose 5-phosphate activator present at AC10 | Potency, µM | actives 1.2% (n = 51,000) | AID 361, 2006; in the data active means potency below about 11 µM; inconclusive means mostly about 12 µM to 25 µM; inactive means weaker than that;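 the screen sought inhibitors and activators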;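 also: potency is read from the fitted curve at half-maximal effect; scaled between full activation by ribose 5 phosphate and full inhibition by luteolin; about four in five hits inhibit and the cells do not say which; series up to 57 µM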
YjeE inh = qHTS Assay for Inhibitors of YjeE; purified YjeE, fluorescence polarisation of a bound ADP probe; Potency, µM; actives 0.05% (n = 71,000); active = well fitted falling curve; inconclusive = weaker or top-dose-only fall, or a rising curve; inactive = flat or poorly fitted curve;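 also: top concentration of the series not given in the record; excess ADP was the control for the full effect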
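Purified YjeE (10 uM) with BODIPY Texas Red-labeled ADP probe (2 uM); compounds pin-transferred, 15 min at room temperature. Binding inhibition read as decreased fluorescence polarization; ADP titration as control.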
* marks the source's active call; other numbers are inactive results; i = inactive; ? = inconclusive; · = no result given. These rows are one share of the data (hit frequency here may not be typical).

SMILES | Bst PK mod | YjeE inh
CSCC[C@H](NC(=O)OC(C)(C)C)c1nnc(SCc2cccc(F)c2)o1 | >57 | i
COc1ccc2nc(NCCO)[nH]c2c1 | >57 | i
O=C(Nc1ccccc1-c1nnn(CC(=O)N2CCCc3ccccc32)n1)c1ccco1 | ? | i
Cc1ccn(S(=O)(=O)c2ccc(C(C)(C)C)cc2)n1 | >57 | i
COc1ccc(Cl)cc1NC(=O)CSc1nnc(-c2ccncc2)n1CC1CCCO1 (centres undefined) | >57 | i
COCCn1nnnc1C(c1cc2c(C)cc(C)cc2[nH]c1=O)N1CCCCCC1 (centres undefined) | >11 | i
O=C(NC12CC3CC(CC(C3)C1)C2)c1cncc(O)c1 | >57 | i
O=C(Nc1nccs1)c1ccc(COc2ccccc2Br)o1 | · | i
CCSCCOC(=O)C1=C(C)NC2=C(C(=O)CCC2)C1c1coc2ccccc2c1=O (centres undefined) | · | i
COC(=O)c1ccc(NC(=O)CCN2CCCCC2)cc1 | >57 | i
C=CCOc1cccc(C2/C(=C(/O)c3ccc(F)cc3)C(=O)C(=O)N2CCN2CCOCC2)c1 (centres undefined) | >57 | i
N#CCCn1c(=O)c(-c2ccc(F)cc2)nc2cnc(N3CCOCC3)nc21 | · | i
COC(=O)C(C)n1cnc2c(nnn2Cc2ccc(Cl)cc2)c1=O (centres undefined) | >57 | i
CC(C)(C)C(=O)[C@@H]1[C@@H]2C(=O)N(c3ccc4c(c3)OCCO4)C(=O)[C@@H]2C2c3ccccc3C=CN21 (some centres undefined) | >57 | i
COc1ccc(N2CCN(C(=O)CSc3nnc4n3C(C)(C)Cc3ccccc3-4)CC2)cc1 | >57 | i
Cc1ccc(S(=O)(=O)C2(C(=O)Nc3cccc(F)c3)CC2)cc1 | · | i
Nc1nc2c(c(=O)[nH]1)CN(c1ccc(S(N)(=O)=O)cc1)CN2 | · | i
CCOC(=O)c1sc2nc(SCC#N)n(CCCN3CCCC3=O)c(=O)c2c1C | >57 | i
CCSc1n[nH]c(=O)[nH]c1=O | · | i
Cc1ccc2nc(-c3ccc4c(c3)OCCO4)cc(C(=O)O)c2c1 | ? | i

A draw from above in order of length of the SMILES, falling:
SMILES | Bst PK mod | YjeE inh
O=C(Nc1ccccc1-c1nnn(CC(=O)N2CCCc3ccccc32)n1)c1ccco1 | ? | i
Cc1ccc(S(=O)(=O)C2(C(=O)Nc3cccc(F)c3)CC2)cc1 | · | i
Cc1ccc2nc(-c3ccc4c(c3)OCCO4)cc(C(=O)O)c2c1 | ? | i
O=C(NC12CC3CC(CC(C3)C1)C2)c1cncc(O)c1 | >57 | i
COc1ccc2nc(NCCO)[nH]c2c1 | >57 | i

Following part:
SMILES | Bst PK mod | YjeE inh
CCOC(=O)C1=C(C)NC(=O)C(C(N)=O)C12CCCCC2 (centres undefined) | >57 | i
CCOC(=O)C1CCCN(c2cc(=O)n(-c3ccccc3Cl)c(=O)[nH]2)C1 (centres undefined) | · | i
CCCC(=O)NC(C)c1nc2ccccc2n1C(C)C (centres undefined) | · | i
CCOc1ccc(NC(=O)C(C)SC(N)=O)cc1 (centres undefined) | · | i
CCn1c2ccccc2c2cc(NC(=O)C3CCN(S(=O)(=O)c4cccs4)CC3)ccc21 | >57 | i
Cc1ccc(S(=O)(=O)NCCC(=O)OCn2nnc3ccccc3c2=O)cc1 | · | i
O=c1cc(CO)oc(CN2CCN(c3ccccc3)CC2)c1O | >57 | i
Cc1ccc(S(=O)(=O)N2CCC(C(=O)N[C@@H](C)C(=O)NC3CCCCC3)CC2)cc1 | >57 | i
COC(=O)[C@H](NC(=O)c1cc(-c2ccccc2)nc2ccccc12)c1ccccc1 | · | i
CCC(C)(C)n1nnnc1C(c1ccc(N(C)C)cc1)N1CCN(C2CCCCC2)CC1 (centres undefined) | >57 | i
COc1ccccc1-c1noc(-c2ccco2)n1 | · | i
O=C(NCc1ccc2c(c1)OCO2)c1ccc2c(c1)C(=O)N(CC1CCCO1)C2=O (centres undefined) | >57 | i
Cc1c(Nc2nc3ccccc3nc2N2CCN(c3ccccc3)CC2)c(=O)n(-c2ccccc2)n1C | · | i
COc1ccccc1CN1CC[C@@]2(CCCN(C(=O)c3cnccn3)C2)C1 | · | i
Cc1ccc(Nc2nc(=O)c3cccnc3s2)cc1 | >57 | i
Cc1ccc(C2C(C#N)=C(N)Oc3n[nH]c(-c4cccs4)c32)s1 (centres undefined) | >57 | i
O=C(CSc1nc2ccsc2c(=O)n1NC(=O)c1ccccc1)NCc1ccco1 | >57 | i
COC(=O)c1ccccc1COn1c(=O)c(C)[n+]([O-])c2ccccc21 | >57 | i
CCc1nc(SCC(N)=O)c2c(=O)n(C)c(=O)n(C)c2n1 | · | i
COc1cc(OC)nc(NC(=O)C(C)C)n1 | · | i

Profiles, looked up by structure. Order of values: Bst PK mod | YjeE inh
`O=C(NCc1ccc2c(c1)OCO2)c1ccc2c(c1)C(=O)N(CC1CCCO1)C2=O` (centres undefined) in the list: >57 | i
`CCn1c2ccccc2c2cc(NC(=O)C3CCN(S(=O)(=O)c4cccs4)CC3)ccc21` in the list: >57 | i
`Cc1c(Nc2nc3ccccc3nc2N2CCN(c3ccccc3)CC2)c(=O)n(-c2ccccc2)n1C` in the list: · | i
`CCOC(=O)C1CCCN(c2cc(=O)n(-c3ccccc3Cl)c(=O)[nH]2)C1` (centres undefined) in the list: · | i
`Cc1ccc(Nc2nc(=O)c3cccnc3s2)cc1` in the list: >57 | i

Carrying on:
SMILES | Bst PK mod | YjeE inh
CCN(CC)CCN1C(=O)C(O)=C(C(=O)c2cccs2)C1c1ccccn1 (centres undefined) | >26 | ·
CCCCCCNS(=O)(=O)c1ccc(OC)c(OC)c1 | >57 | i
CCOc1ccc(C(=O)N2CCC(C(=O)c3ccc4c(c3)OCCO4)CC2)cc1 | >57 | i
CN1CCc2cc(Cl)c(O)cc2[C@@H](c2ccccc2)C1 | · | i
CC(C)(CCc1nc2ccccc2[nH]1)C(=O)O | · | i
CN1CCN(CC#CCC(O)(c2ccccc2)C2CCCC2)CC1 (centres undefined) | >57 | i
CCOCCCNC(=O)C1CCN(S(=O)(=O)c2c(C)noc2/C=C\c2ccc(OC)cc2)CC1 | >57 | i
Cc1nnc(N2CCCCC2)c2ccccc12 | >26 | ·
COc1cccc(OCC(O)CN2C(C)CCCC2C)c1 (centres undefined) | >57 | i
COc1cc2c(cc1OC)C(c1cc3cc(OC)c(OC)cc3[nH]c1=O)N(C(=O)C1CC1)CC2 (centres undefined) | >57 | i
CC(=O)OCC(=O)[C@@]12OC3(CCCC3)O[C@@H]1C[C@H]1[C@@H]3CCC4=CC(=O)C=C[C@]4(C)[C@@]3(F)[C@@H](O)C[C@@]12C | >11 | ·
COCCNc1nc(-c2c(C)noc2C)nc2ccccc12 | · | i
C=CCOc1nc2c(c(=O)n(Cc3ccc(Cl)cc3)c(=O)n2C)n1C | >26 | ·
CCN1C(=O)C(CC(=O)NCc2ccc(Cl)cc2)N(CC)C1=O (centres undefined) | >57 | i
Cc1oc(-c2ccc(Cl)cc2)[n+]([O-])c1C | >57 | i
Cc1csc2nc(CSc3ccc(Cl)cc3)cn12 | · | i
COc1ccc(N2Cc3cccc(C(=O)N4CCN(C(=O)c5ccco5)CC4)c3C2=O)cc1 | · | i
COc1cc2c(cc1OC)-c1cc(NC3CCCCCC3)nc(=O)n1CC2 | >57 | i
COc1ccc(C(=O)NCc2cn3ccsc3n2)cc1OC | · | i
Clc1ccccc1-c1nn2c(-c3ccccn3)nnc2s1 | >26 | ·
CC1CCN(C(=O)C2CCN(C(=O)c3cc4sccc4n3Cc3ccc(F)cc3)CC2)CC1 | >57 | i
O=C(NCC(c1cccnc1)N1CCN(c2ccccc2F)CC1)c1cccc(Cl)c1 (centres undefined) | >57 | i
COC(=O)c1cc(Br)c(=O)n(-c2nccs2)c1 | >26 | ·
CCN(CC)CCCNC(=O)Cn1ncc2c(=O)oc3ccc(C)cc3c21 | · | i
COc1cccc(C2C(C(N)=O)=C(C)Nc3nc(CCCO)nn32)c1OC (centres undefined) | · | i
O=C(CC1OC(=O)c2ccccc21)NC1CCCCC1 (centres undefined) | >57 | i
O=C(c1ccccc1)N1CCCOC1c1ccccc1 (centres undefined) | >57 | i
O=S1(=O)CCC(NCC2CCCO2)C1 (centres undefined) | >57 | i
O=C(c1cc2c(=O)oc3ccccc3c2s1)N1CCOCC1 | >57 | i
O=S(=O)(O)c1ccc2cc(N=Nc3cc(S(=O)(=O)O)c4cccnc4c3O)ccc2c1 | · | i
O=C(COC(=O)C1(c2ccccc2)CC1)N1CCN(c2ccc(F)cc2)CC1 | >57 | i
O=C(NCc1cccs1)C1CCN(c2nc3ccccc3o2)CC1 | >57 | i
O=C(O)C1CCCCC1C(=O)Nc1cnn(Cc2ccccc2)c1 (centres undefined) | · | i
O=C(NCc1cn2ccsc2n1)Nc1cccc(Cl)c1 | >57 | i
C=CCn1c(SCc2csc(C)n2)nc2sc3c(c2c1=O)CCCCC3 | >57 | i
CC(=O)Nc1ccc(NC(=O)c2ccccc2N(C)S(C)(=O)=O)cc1 | >57 | i
O=C(NCc1ccccc1)c1cccc(NC(=O)c2ccco2)c1 | · | i
O=C(c1ccccc1)N(CCN1CCOCC1)C1(C(=O)Nc2ccccc2)CCCCC1 | >57 | i
COC(=O)c1cc(Br)c(=O)n(Cc2ccncc2)c1 | >57 | i
CCC(=O)n1nc(-c2ccccc2)nc1NCc1ccccc1 | >57 | i
Cc1ccc(NC(=O)C(C)N2C(=O)C3CC=C(Cl)CC3C2=O)cc1 (centres undefined) | >57 | i
COC(=O)c1nnn(-c2ccccc2)c1N | >57 | i
C[C@@](N)(C(=O)O)c1ccc(S(=O)(=O)O)cc1 | · | i
O=C(Nc1nc2ccccc2n1CCN1CCCCC1)c1ccco1 | >57 | i
Cc1cc(NC(=O)CCCC(=O)N(CC(=O)NC2CCCCC2)c2ccccc2)no1 | · | i
CCC(=O)Nc1ccc(C(=O)Cn2nc(C(=O)O)c3ccccc3c2=O)cc1 | >57 | i
COc1nnc(OC)c2ccccc12 | >57 | i
COc1cccc(Cn2c(=S)[nH]c3ccc(N4CCOCC4)cc3c2=O)c1 | >57 | i
O=C(C1CCC(=O)N1Cc1cccnc1)N1CCN(c2ccc(F)cc2)CC1 (centres undefined) | · | i
CCN(CC)S(=O)(=O)c1cccc(-c2nnc(SCC(=O)c3cc(C)n(C)c3C)o2)c1 | >57 | i
CCCS(=O)(=O)NCCc1cc2c(OC)ccc(OC)c2[nH]c1=O | 6.4* | i
Cc1ccccc1C(=O)NC1CC(C)(C)NC(C)(C)C1 | >57 | i
Cc1oc(-c2ccc(Cl)cc2)nc1CN1CCC(C(=O)NCc2cccnc2)CC1 | >57 | i
c1ccc2c(-n3cccn3)cccc2c1 | · | i
COC(=O)c1cc(OC)c(OC)cc1NC(=O)C1CCC(=O)N1S(=O)(=O)c1ccc(C)cc1 (centres undefined) | ? | i
COc1ccc(CC(=O)OCC(=O)Nc2c(C)n(C)n(-c3ccccc3)c2=O)cc1 | >57 | i
Cc1cc2cc(CNC(=O)CC(C)C)ccc2n1C | >57 | i
O=C(CSc1nc2c(sc3ccccc32)c(=O)n1Cc1ccco1)NCC1CCCO1 (centres undefined) | >57 | i
COc1cc(NS(=O)(=O)c2ccc(NC(=O)COc3ccccc3C)cc2)nc(OC)n1 | >57 | i
N[C@@H]1C=CC=C(C(=O)O)C1 | · | i

Next entries.
SMILES | Bst PK mod | YjeE inh
Cn1ccnc1SC(=O)N1c2ccccc2Sc2ccccc21 | · | i
CCCCn1c(SCC(=O)N2CCC(C(=O)OCC)CC2)nc2cc(S(N)(=O)=O)ccc21 | >57 | i
CC1(C)CC(=O)C2=C(C1)Nc1[nH]n(-c3ccccc3)c(=O)c1C2c1ccc2c(c1)OCO2 (centres undefined) | >57 | i
CCOC(=O)c1ccc(Cn2cnc3ccccc3c2=O)cc1 | >57 | i
CCn1c(SCC(=O)c2cccs2)nnc1-c1ccco1 | >57 | i
CC(C)(C)OCC1CO1 (centres undefined) | · | i
OC(COc1c(Cl)cc(Cl)cc1Cl)CN1CCCCC1 (centres undefined) | · | i
O=C(Nc1ccc2c(c1)C(=O)N(C1CCCCC1)C2=O)C1CCCO1 (centres undefined) | >57 | i
O=C(O)C1CCCCC1C(=O)OCCCCOC(=O)C1CCCCC1C(=O)O (centres undefined) | · | i
Cc1ccc2oc(-c3ccc(NC(=O)CC(C)C)cc3)nc2c1 | · | i
CCCCN(CC)CCNS(=O)(=O)c1cccc2cccnc12 | · | i
N#CCn1c(C2CCCCC2)nc2ccccc2c1=O | >57 | i
Cc1cnc(NC(=O)CN2CCN(c3ccccn3)CC2)s1 | >57 | i
CNC(=O)CCC(=O)Nc1ccc(C(=O)OC)cc1 | >57 | i
O=C(NCc1cccnc1)c1cccc(C(F)(F)F)c1 | >57 | i
CC1(C)Cc2noc(N)c2C(C)(C)N1OC(=O)c1scc2c1OCCO2 | >57 | i
O=C(Cn1[nH]c(=O)c2ccccc2c1=O)Nc1cccc(-c2nnc3n2CCCCC3)c1 | >57 | i
N#CC(C#SN)=C1CCCCC1 | >57 | i
CCOC(=O)N1CC=C2C(C#N)=C(N)C(C#N)(C#N)[C@H](c3ccccc3OCC)[C@H]2C1 | >57 | i
CN1CCN(C2=C(Cl)C(=O)N(c3cccc(Cl)c3)C2=O)CC1 | · | i
C[N+]1(C)CC[C@@H](OC(=O)[C@@](O)(c2ccccc2)C2CCCC2)C1 | · | i
